High-throughput results (PubChem)
HIV Env fusion: inhibitors of HIV-1 Env-driven cell-cell fusion, primary screen, HeLa-JRFL effector, CEM21 target cells, luciferase | inhibition, % at 12.3 µM | 360,000 tested, 1.1% active;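 active = mean replicate inhibition score of at least 50 and every replicate individually at or above 50; inconclusive = only one of the two criteria met; inactive = mean below 50 and not all replicates reaching 50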;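 note: 0% = plate neutral controls and 100% = maraviroc near 300 nM; one replicate is shown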
PABP polyA inh: PABP poly(A) RNA binding inhibitors, primary screen, biochemical, fluorescence polarization, uHTS; Polyadenylate-binding protein 1 (Homo sapiens), P11940; inhibition, % at 35 µM; 290,000 tested, 1% active; AID 2014, 2009;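 active = 50% or more with normal probe brightness, or confirmed in later tests; inconclusive = above 50% with abnormal brightness, or retests that disagree; inactive = below 50% or failed in later tests; about a fifth of its hits are not listed in these tables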;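 note: calls also rest on retests at 20 µM and on dose response follow-up; controls were probe without protein and protein plus probe with vehicle; some compounds called inactive have numbers as strong as hits; many hits fall short of the cut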
MT1-MMP act inh: blockers of MT1-MMP proenzyme processing, primary screen, HT1080 RFP-PRO-GFP cells, GFP/RFP fluorescence. 360,000 tested, 0.061% active. Matrix metalloproteinase-14 (Homo sapiens), P50281. GFP/RFP ratio fluorescence, overnight; percent of plate control window, DMSO zero. GFP/RFP ratio change, % at 20 µM;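 active = GFP/RFP ratio change of at least 30% with cell ATP level not reduced by more than half and red fluorescence within 50% of control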; note: strong numbers were not always called active
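Assay system: RFP-PRO-GFP reporter HT1080 cells; read-out basis: GFP/RFP fluorescence ratio; benchmarks: DMSO wells and RFP-L50D-GFP cells; doses: 20 µM single dose, 1% DMSO; schedule: overnight cell settling, then overnight compound exposure, 37 °C, 5% CO2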
eIF4H FP inh: human eIF4H binding inhibitors, primary screen, translation initiation inhibitor project, biochemical, uHTS, fluorescence polarization | Eukaryotic translation initiation factor 4H (Homo sapiens), Q15056 | eIF4H fluorescence polarization binding assay | inhibition, % at 35 µM | 290,000 tested, 0.94% active;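 active = 50% or more with normal probe brightness, or confirmed in later tests; inconclusive = above 50% with abnormal brightness, or retests that disagree; inactive = below 50% or failed in later tests; about a fifth of its hits are not listed in these tables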;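 note: calls also rest on retests at 20 µM and on dose response follow-up; 0% = protein and probe with vehicle and 100% = probe without protein; strong numbers were not always called active; many hits fall short of the cut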
Yeast UUG start: modulators of yeast start codon fidelity, primary screen, whole organism, S. cerevisiae, single point, plate reader. S. cerevisiae UUG-firefly luciferase reporter, luminescence/redox ratio. activity score, % at 18.7 µM. 350,000 tested, 0.13% active. AID 602363, 2012;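 active = replicate mean at a twofold rise or more, about +100% in these data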;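 note: firefly luciferase made from a UUG start codon reports start codon fidelity; reporter light over untreated wells divided by growth signal over untreated wells; some hits fall short of that in this replicate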
Rce1 inh: yeast Rce1p protease inhibitors, primary screen, biochemical, fluorescence, cell-free homogeneous; CAAX prenyl protease 2 (Saccharomyces cerevisiae (strain ATCC 204508 / S288c)), Q03530; yeast membranes, quenched prenylated peptide cleavage fluorescence; calls only; 290,000 tested, 0.27% active;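 active = fall in fluorescence gain of 50% or more versus controls, with final raw signal at or below 3038400; inconclusive = same 50% fall but final raw signal above 3038400; inactive = fall in fluorescence gain under 50%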;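 note: plate controls were neutral control wells for no effect and wells lacking membranes for full effect; tested at 10 µM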
Target sequence (Q03530 whole entry, looked up): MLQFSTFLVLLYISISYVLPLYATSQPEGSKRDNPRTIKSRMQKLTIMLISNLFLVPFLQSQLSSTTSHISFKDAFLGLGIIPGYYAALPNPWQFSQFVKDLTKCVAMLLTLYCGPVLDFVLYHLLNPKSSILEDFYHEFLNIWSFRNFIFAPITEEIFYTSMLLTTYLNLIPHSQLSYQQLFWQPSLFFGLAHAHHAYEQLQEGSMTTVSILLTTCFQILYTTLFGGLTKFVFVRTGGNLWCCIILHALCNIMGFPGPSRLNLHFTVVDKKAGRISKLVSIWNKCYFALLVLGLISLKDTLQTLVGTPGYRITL
CSC inhib: cancer stem cell viability inhibitors, primary screen, luminescence. cancer stem cell-like cells viability. inhibition, % at 7.5 µM. AID 2717, 2010. 300,000 tested, 1.1% active;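 active = mean at 75% or more and at least half the replicates too; inconclusive = mean and replicates disagree; tested in HMLE shEcad cells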;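 note: 0% = median of negative and 100% = median of positive control wells; the first replicate is given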
MT1-MMP act inh RFP: also measured in MT1-MMP act inh; calls as there; RFP signal change, %; measured here: RFP expression control read;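 0 = vehicle wells; hits needed this value within 50% of zero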
The depositor's hits bear a star; i = inactive; ? = inconclusive; / = not tested or not shown.

SMILES | HIV Env fusion | PABP polyA inh | MT1-MMP act inh | MT1-MMP act inh RFP | eIF4H FP inh | Yeast UUG start | Rce1 inh | CSC inhib
NS(=O)(=O)c1ccc(NC(=O)COC(=O)CCc2nc3ccccc3c(=O)[nH]2)cc1 | 1 | / | 0 | 5 | / | -11 | / | /
O=C(CSc1ncccn1)NC(=O)NCc1ccco1 | 3 | -1 | 0 | 2 | 34 | -14 | i | -6
O=C(NCc1cccs1)c1ccccc1[N+](=O)[O-] | 1 | -3 | 0 | 3 | -19 | / | i | -12
CN(C)CCNC(=O)c1cccc(-c2cnc3c(NC=O)cc(-c4cccc(F)c4)cn23)c1 | -19 | / | 0 | -3 | / | -13 | / | /
CN(C)N1C(N)=C(C#N)C(c2cccs2)C2=C1CC(C)(C)CC2=O (stereo unspecified) | 3 | -15 | -2 | -1 | 14 | / | i | -9
CSc1ccc(NC(=O)C2(C)CCN2C(=O)c2cc(C)n(C)n2)cc1 (stereo unspecified) | 7 | / | 1 | 0 | / | -14 | / | /
COc1ccccc1NC(=O)CCc1nc2sc3c(c2c(=O)[nH]1)CCCC3 | -2 | / | -8 | 5 | / | / | i | 11
COc1ccc(CCNC(=O)c2ccc(S(=O)(=O)N(C)c3ccccc3)cc2)cc1OC | 15 | 2 | 3 | -5 | 2 | 2 | i | -14
COC(=O)[C@]1(C)N[C@H](CN(C)C(=O)COc2ccccc2)[C@@H]2C(=O)N(C)C(=O)[C@@H]21 | -10 | / | 1 | 7 | / | -6 | / | /
CCc1ccc(N2C(=O)C(Cl)=C(N3CCCCCC3)C2=O)cc1 | 33 | 4 | -5 | -6 | 1 | -13 | i | 22
CCCSc1nnc(CNC(=O)C23CC4CC(CC(C4)C2)C3)n1Cc1ccccc1 | 11 | -14 | -5 | -3 | -5 | 5 | i | 32
COc1ccc(C(C)(O)c2nc(-c3ccccc3C)cs2)cc1 (stereo unspecified) | -19 | / | -5 | -14 | / | -6 | / | /
COc1ccc(C(=O)NCCONC(=O)c2ccc(OC)cc2)cc1 | 4 | 12 | -4 | -1 | 3 | 2 | i | -13
O=[N+]([O-])c1cc(/C=N/Nc2nc(N3CCCCC3)nc(N3CCCCC3)n2)ccc1O | / | -5 | 5 | 3 | 0 | / | i | 9
CC(=O)c1ccc(NC(=O)CSc2nnc(NC(=O)CN3CCOCC3)s2)cc1 | / | -3 | 2 | 0 | -1 | -6 | i | -12
CN(C)C(=O)N1CCC(C(=O)NCc2ccccc2)CC1 | / | -8 | -1 | 1 | -1 | -23 | i | -2
COc1cc2cc(Oc3ccc4ccc(=O)oc4c3)c(=O)oc2cc1OC(=O)/C=C/c1ccccc1 | 17 | 5 | -2 | 1 | -8 | -4 | i | -12
Cc1ccc(-c2csc3ncn(CC(N)=O)c(=O)c23)cc1C | 8 | 1 | 1 | -2 | -11 | -5 | i | -3
CCC(C)NC(=O)CCCc1ccccc1 (stereo unspecified) | / | 10 | 3 | 1 | 4 | -6 | i | 3
O=C(OCC(=O)N1CCCC1)c1ccc(NS(=O)(=O)c2cccs2)cc1O | 4 | 1 | 0 | 1 | 21 | -4 | i | -12
COC(=O)c1ccc(Cl)c(NC(=O)CN2CCN(C)CC2)c1 | -6 | 8 | 3 | 2 | 17 | -2 | i | /
COCCCN1C(=O)C(CC(=O)NCc2cccc3ccccc23)CC(C(=O)N2CCOCC2)=C1C (stereo unspecified) | ? | / | 2 | 4 | / | -9 | / | /
Cc1cc(O)ccc1Nc1cc(-c2cccc(N(C)C)c2)ncn1 | -30 | / | 3 | 5 | / | -5 | / | /
O=[N+]([O-])c1ccc(-c2ncc(-c3ccc(Br)cc3)o2)cc1 | -25 | -3 | 3 | -2 | 2 | / | i | -2
CC(c1ccccc1)n1c(S(=O)(=O)O)nc2ccccc21 (stereo unspecified) | 15 | -5 | 5 | 4 | -4 | / | i | -6

Quoted from the results shown (2 entries):
SMILES | HIV Env fusion | PABP polyA inh | MT1-MMP act inh | MT1-MMP act inh RFP | eIF4H FP inh | Yeast UUG start | Rce1 inh | CSC inhib
Cc1ccc(-c2csc3ncn(CC(N)=O)c(=O)c23)cc1C | 8 | 1 | 1 | -2 | -11 | -5 | i | -3
CCC(C)NC(=O)CCCc1ccccc1 (stereo unspecified) | / | 10 | 3 | 1 | 4 | -6 | i | 3

Continued.
SMILES | HIV Env fusion | PABP polyA inh | MT1-MMP act inh | MT1-MMP act inh RFP | eIF4H FP inh | Yeast UUG start | Rce1 inh | CSC inhib
COc1ccccc1N(CC(=O)N1CCC(C(N)=O)CC1)S(=O)(=O)c1ccccc1 | -5 | -3 | 1 | 3 | -16 | -17 | i | -1
Cc1nc(NC(=O)C2CC2)sc1C(=O)NC1CCCCC1 | -3 | -4 | 2 | 7 | -2 | / | i | 12
O=C(Cc1ccccc1)Nc1ccc(Br)c(Cl)c1 | 9 | 36 | 2 | 5 | -13 | / | i | 14
CCCc1[nH]nc2c1C(c1cn[nH]c1-c1ccc(F)cc1)C(C#N)=C(N)O2 (stereo unspecified) | / | 12 | -45 | -32 | 8 | -11 | i | -4
O=C(Nc1cccc(F)c1)N1CCc2nc(NCc3cccc(Oc4ccccc4)c3)ncc2C1 | ? | / | 12 | -20 | / | 2 | / | /
CC(NC(=O)N1CCOCC1)c1ccccc1 (stereo unspecified) | -25 | 7 | -2 | 5 | 4 | 8 | i | -2
CC(C)C[C@H](CO)Nc1nc(Nc2cccc(Cl)c2)c2ncn(C(C)C)c2n1 | -290 | -4 | -7 | -9 | -5 | -22 | i | -8
COc1ccc(-c2nn(Cc3ccccc3)cc2C(=O)N2CCN(c3ncccn3)CC2)cc1OC | / | / | 0 | -3 | / | -1 | / | -3
CC(=O)NC(=S)Nc1ccc(NC(=S)NC(=O)c2cccs2)cc1 | 0 | 1 | 2 | 0 | 7 | -9 | i | -8
O=C(O)CCCC(=O)N1CCc2cc(S(=O)(=O)NCc3ccccc3)ccc21 | -1 | 4 | 5 | 4 | -1 | 7 | i | 0
OC1(c2ccccc2)CN(c2ccccc2)C2=[N+]1CCS2 (stereo unspecified) | 1 | 22 | -4 | 0 | -10 | / | i | -5
CCOC(=O)c1ccc(N2C(=O)CC(C(=O)OC)=C2C)cc1 | -78 | 2 | -11 | -3 | -1 | -28 | i | 3
CC(C)c1cccc(C(C)C)c1NC(=S)Nc1cccc(Cl)c1 | 4 | 4 | 0 | -1 | -1 | -30 | i | 19
O=C(Nc1cccc2ccccc12)C1CCN(C(=O)Cc2ccccc2)CC1 | / | 21 | 2 | 0 | 4 | -14 | i | -6
COc1ccccc1CNCC(=O)Nc1ccc(C#N)cc1 | -6 | 3 | 0 | 6 | 6 | -8 | i | -4
O=C(/C=C/C(=O)N1CCc2ccccc2C1)N1CCc2ccccc2C1 | -11 | 16 | -2 | -1 | 9 | / | i | 11
O=C1CC(C(=O)Nc2cccc(Cl)c2)n2ncnc2N1 (stereo unspecified) | -12 | -10 | 2 | 6 | -6 | -3 | i | -9
CCn1c(CCNC(=O)c2cccs2)nnc1SCC(=O)Nc1ccc(Cl)cc1 | -73 | -3 | 11 | 5 | 2 | -15 | / | -6
CCC(=O)NC(C)c1cc(Cl)c2cccnc2c1O (stereo unspecified) | -36 | / | 3 | 0 | / | -26 | / | -4
O=C(NCCc1nnc2ccc(NCC3CCCO3)nn12)c1ccccc1 (stereo unspecified) | -6 | -2 | -1 | 2 | 6 | -6 | i | -6
CC(=O)c1cccc(CN2CCC(n3nccc3NC(=O)CCc3ccccc3)CC2)c1 | / | -6 | 3 | -1 | -2 | -20 | / | -5
COc1cc(N)c(Cl)cc1C(=O)OCC(=O)NC(=O)NCc1ccco1 | -106 | / | -1 | -2 | / | -17 | / | 3
Cc1ccc(OCCC(=O)OCC(=O)N2c3ccccc3CC2C)cc1 (stereo unspecified) | / | 12 | 3 | 3 | -2 | -12 | i | -7
CCN(CC)C(=O)CSc1nc2c(sc(=S)n2-c2ccccc2OC)c(=O)n1-c1ccccc1 | 5 | -8 | -8 | -9 | 6 | -8 | i | /
C#CCOCCOCCOCCNc1nc(N2CCN(C(=O)[C@H](C(C)C)n3cc(CCO)nn3)CC2)nc(N2CCN(C(=O)[C@H](C)n3cc(CCCN=C(N)N)nn3)CC2)n1 | 26 | / | 0 | 1 | / | 1 | / | /

Two entries from above, with values under each structure.
Below each compound: HIV Env fusion | PABP polyA inh | MT1-MMP act inh | MT1-MMP act inh RFP | eIF4H FP inh | Yeast UUG start | Rce1 inh | CSC inhib
- CCCc1[nH]nc2c1C(c1cn[nH]c1-c1ccc(F)cc1)C(C#N)=C(N)O2 (stereo unspecified)
 : / | 12 | -45 | -32 | 8 | -11 | i | -4
- O=C(Nc1cccc(F)c1)N1CCc2nc(NCc3cccc(Oc4ccccc4)c3)ncc2C1
 : ? | / | 12 | -20 | / | 2 | / | /

Molecules above with a nitro group on carbon (three):
SMILES | HIV Env fusion | PABP polyA inh | MT1-MMP act inh | MT1-MMP act inh RFP | eIF4H FP inh | Yeast UUG start | Rce1 inh | CSC inhib
O=C(NCc1cccs1)c1ccccc1[N+](=O)[O-] | 1 | -3 | 0 | 3 | -19 | / | i | -12
O=[N+]([O-])c1cc(/C=N/Nc2nc(N3CCCCC3)nc(N3CCCCC3)n2)ccc1O | / | -5 | 5 | 3 | 0 | / | i | 9
O=[N+]([O-])c1ccc(-c2ncc(-c3ccc(Br)cc3)o2)cc1 | -25 | -3 | 3 | -2 | 2 | / | i | -2

The list continues.
SMILES | HIV Env fusion | PABP polyA inh | MT1-MMP act inh | MT1-MMP act inh RFP | eIF4H FP inh | Yeast UUG start | Rce1 inh | CSC inhib
COCC(=O)n1nc(-c2ccc(C)cc2)nc1NCc1ccc(F)cc1 | -10 | -6 | 9 | 2 | 1 | / | / | /
Cc1cccc(N=C2NC(=O)/C(=C/c3cccnc3)S2)c1 | 2 | 6 | -8 | -4 | -4 | / | i | 10
COc1cc(CN2CCN(C(C)C)C(CCO)C2)ccc1OCc1ccccc1 (stereo unspecified) | 18 | -6 | 3 | 7 | 0 | / | i | 37
Cc1ccc(NC(=O)CSc2nnc3ccccn23)cc1 | -15 | -8 | 2 | 1 | 4 | / | i | /
CCOc1ccc(C(=O)NC(=S)Nc2ccccn2)cc1[N+](=O)[O-] | / | 7 | -1 | -1 | 1 | -21 | i | 5
O=C(c1ccc(Cl)c(S(=O)(=O)N2CCOCC2)c1)N1CCCCC1 | -12 | -8 | 3 | 3 | 0 | / | i | -5
Cc1ccc(C(C#N)=Cc2ccc3c(c2)OCO3)cc1 | i | / | -2 | -3 | / | -18 | / | /
COCC(C)N=Cc1c(O)[nH]c2ccccc12 (stereo unspecified) | -25 | -5 | 1 | 3 | 4 | 20 | i | -6
CCOc1ccc(CCNC(=O)COC(=O)c2cccc(OC)c2O)cc1OCC | 0 | 30 | 0 | 2 | -2 | / | i | -12
COc1cccc(/C=C/C(=O)OCC(=O)NCc2ccc3c(c2)OCO3)c1 | / | / | 1 | 2 | / | -16 | / | -4
O=C1OCCN1CCN(CN1C(=O)CCC1=O)CN1C(=O)CCC1=O | -1 | 9 | 2 | 10 | -9 | -9 | i | -16
COc1ccc(NS(=O)(=O)c2cccc(C(=O)NNC(=O)COc3ccccc3)c2)cc1 | -4 | / | 0 | 1 | / | 3 | i | -3

Not a hit list; any-hit rate near 3%.
